High-throughput results: PubChem BioAssay, National Center for Advancing Translational Sciences (NCATS)
VDR inhibitor – inhibitors of human vitamin D receptor | VDR-SRC2-3 peptide fluorescence polarization, 2 h | Potency, µM, for the others: max response, negative = inhibition, most hits filed as inhibitors | actives 0.93% (n = 400,000); active = well fitted inhibition curve with a large enough effect; inconclusive = small, poorly fitted or top-dose-only effect, or another doubt; inactive = no such curve, though single readings can be large or run the other way; also: series mostly up to about 120 µM
Target sequence (P11473 whole entry, looked up): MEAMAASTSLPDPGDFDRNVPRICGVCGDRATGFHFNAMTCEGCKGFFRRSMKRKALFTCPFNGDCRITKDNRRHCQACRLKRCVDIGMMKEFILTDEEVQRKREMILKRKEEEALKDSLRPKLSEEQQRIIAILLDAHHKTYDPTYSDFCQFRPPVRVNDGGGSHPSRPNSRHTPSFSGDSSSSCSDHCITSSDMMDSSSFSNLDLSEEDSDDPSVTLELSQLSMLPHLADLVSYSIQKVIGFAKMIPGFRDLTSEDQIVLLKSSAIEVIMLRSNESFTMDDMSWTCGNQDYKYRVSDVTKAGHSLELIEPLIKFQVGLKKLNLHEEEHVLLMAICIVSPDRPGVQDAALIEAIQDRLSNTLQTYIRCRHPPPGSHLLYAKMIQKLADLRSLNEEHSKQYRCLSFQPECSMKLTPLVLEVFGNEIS
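Signal is fluorescence polarization, reporting how far test compounds block the interaction of VDR with the SRC2-3 coregulator peptide after a 2 h room-temperature incubation.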
Numbers without * were called inactive; ? = inconclusive; & = joins results of further samples. % is scaled to controls: 0 for no effect and ±100 for the full control effect; potency is read from the fitted curve at half-maximal effect. A portion of the library (hit frequency here may not be typical).

VDR inhibitor,canonical_smiles
8%,Nc1nc(CN2CCN(Cc3ccccc3)CC2)nc(N2CCCc3ccccc32)n1
25%,O=C(COc1ccccc1Cl)Nc1cc(-c2ccccc2F)nn1-c1ccccc1
-16%,O=C(Nc1ncccn1)c1ccc([N+](=O)[O-])cc1[N+](=O)[O-]
14%,CN(C)S(=O)(=O)c1ccc(C(=O)Nc2cccc(S(=O)(=O)NC3=NCCC3)c2)cc1
-6%,COc1ccc(N2CCN(C(=O)COc3ccc(S(=O)(=O)N4CCOCC4)cc3C)CC2)cc1
-5%,COc1ccc(-c2c(C#Cc3ccsc3)c3cc(-c4ccc5[nH]ccc5c4)ccc3n2C)cc1
2%,O=C(COC(=O)c1cc(Br)ccc1O)Nc1cc(S(=O)(=O)N2CCCC2)ccc1Cl
9%,Cc1c(C(=O)Nc2ccc(-c3nnc4n3CCCCC4)cc2)oc2ccc(Br)cc12
?,CCN1CCOC(=O)C1CC(=O)Nc1ccccc1C(F)(F)F (stereo not given)
-11%,O=C(CCCC(=O)OCC(Cl)=C(Cl)Cl)Nc1ccccc1F
-8%,CCOC(=O)c1ccc2ncc3c(-c4ccccc4)nn(-c4ccc(F)c(Cl)c4)c3c2c1
-10%,CCOC(=O)c1sc2c(c1C)c(=O)n(CCO)c(=O)n2Cc1ccccc1
-5%,O=C(CN1c2ccccc2Sc2ccccc21)NNC(=O)Nc1ccc(Cl)c(Cl)c1
6%,COC(=O)CN1C(=O)Nc2ccc(C)cc2C1c1ccccc1 (stereo not given)
-5%,COCCNC(=O)C1=NOC(Cn2cc(C#N)c(=O)n(C)c2=O)C1 (stereo not given)
15%,Cc1nc(-c2ccc([N+](=O)[O-])cc2)nc2[nH]ccc(=O)c12
-2%,NC(=O)c1ccc(NC(=O)COC(=O)CCN2C(=O)c3ccccc3C2=O)cc1
-7%,CC1Cc2ccccc2N1S(=O)(=O)c1c(N)n(C)c(=O)n(C)c1=O (stereo not given)
5%,CCCc1nc(SCC(=O)O)c2sc(=S)n(-c3ccccc3)c2n1
-7%,CCN(C(=O)COC(=O)c1cccc(C)c1[N+](=O)[O-])c1c(N)n(Cc2ccccc2)c(=O)[nH]c1=O

Rewritten with tabs: 16 of the compounds above
compound	VDR inhibitor
O=C(COc1ccccc1Cl)Nc1cc(-c2ccccc2F)nn1-c1ccccc1	25%
O=C(Nc1ncccn1)c1ccc([N+](=O)[O-])cc1[N+](=O)[O-]	-16%
CN(C)S(=O)(=O)c1ccc(C(=O)Nc2cccc(S(=O)(=O)NC3=NCCC3)c2)cc1	14%
COc1ccc(N2CCN(C(=O)COc3ccc(S(=O)(=O)N4CCOCC4)cc3C)CC2)cc1	-6%
COc1ccc(-c2c(C#Cc3ccsc3)c3cc(-c4ccc5[nH]ccc5c4)ccc3n2C)cc1	-5%
O=C(COC(=O)c1cc(Br)ccc1O)Nc1cc(S(=O)(=O)N2CCCC2)ccc1Cl	2%
Cc1c(C(=O)Nc2ccc(-c3nnc4n3CCCCC4)cc2)oc2ccc(Br)cc12	9%
CCN1CCOC(=O)C1CC(=O)Nc1ccccc1C(F)(F)F (stereo not given)	?
O=C(CCCC(=O)OCC(Cl)=C(Cl)Cl)Nc1ccccc1F	-11%
CCOC(=O)c1ccc2ncc3c(-c4ccccc4)nn(-c4ccc(F)c(Cl)c4)c3c2c1	-8%
CCOC(=O)c1sc2c(c1C)c(=O)n(CCO)c(=O)n2Cc1ccccc1	-10%
O=C(CN1c2ccccc2Sc2ccccc21)NNC(=O)Nc1ccc(Cl)c(Cl)c1	-5%
COC(=O)CN1C(=O)Nc2ccc(C)cc2C1c1ccccc1 (stereo not given)	6%
COCCNC(=O)C1=NOC(Cn2cc(C#N)c(=O)n(C)c2=O)C1 (stereo not given)	-5%
Cc1nc(-c2ccc([N+](=O)[O-])cc2)nc2[nH]ccc(=O)c12	15%
NC(=O)c1ccc(NC(=O)COC(=O)CCN2C(=O)c3ccccc3C2=O)cc1	-2%

New compounds follow
VDR inhibitor,canonical_smiles
-26%,CC1=C(C(=O)Nc2cc(C)cc(C)c2)C2(CCCCC2)OC1=O
3%,CCN(CC)S(=O)(=O)c1ccc2oc(Nc3ccccc3)nc2c1
11%,CCCCC/C=C\C/C=C\CCCCCCCC(=O)NCCc1ccc(O)c(O)c1
15%,CCOC(=O)N1CCN(C(=O)CCS(=O)(=O)c2ccc(Br)s2)CC1
14%,COc1ccc(/C=N/N=C2/NC(=O)C(CC(=O)O)S2)cc1OS(=O)(=O)c1ccccc1 (stereo not given)
2%,Cc1ccc(C(=O)NCCCNc2ccc(C(F)(F)F)cc2[N+](=O)[O-])cc1
-14%,Cc1ccccc1-c1nsc(SCC(=O)NCc2ccc3c(c2)OCO3)n1
-1%,CCN(CC)C(=O)Oc1ccc2c(=O)c(-c3ccc(OC)cc3)c(C)oc2c1
?,CCOC(=O)c1c(NC(=S)NC)sc2c1CC(C)(C)SC2
-5%,Cc1nn(CC(=O)N(CC(C)C)C2CCS(=O)(=O)C2)c(C)c1[N+](=O)[O-] (stereo not given)
-4%,CCOC(=O)c1cc(S(=O)(=O)N2CCN(C(=O)OCC)CC2)cn1C
-14%,[O-][n+]1c2ccccc2cc2ccccc21
-3%,COc1cc(C2CC(=O)Nc3cc4c(cc32)OCCO4)cc(Br)c1OC (stereo not given)
4%,O=S(=O)(CCNCCc1ccccc1)NCc1ccccc1
-9%,CC(C)C(CO)N1CCN(Cc2ccccc2)CCC1=O (stereo not given)
8%,O=C(Nc1ccc(S(=O)(=O)N2CCCC2)cc1)c1cccc(OC(F)F)c1
-18%,CC(=O)N=c1c(C#N)cc2c(=O)n3cccc(C)c3nc2n1Cc1ccco1
-21%,Cc1nc2nc(SCC(=O)NCCCN3CCCC(C)C3)nn2c(C)c1Cc1ccccc1Cl (stereo not given)
12%,O=C(CCCN1C(=O)c2ccccc2C1=O)Nc1nnc(C2CC2)s1
6%,CC(=O)Nc1ccc(S(=O)(=O)NCCC(=O)OCC(=O)c2ccccc2)cc1
17%,Cc1n[nH]c(=O)c2c1nnn2Cc1ccc(F)cc1
-12%,Cc1noc(C)c1CSc1nc2ccccc2c(=O)n1-c1ccccc1
-4%,COc1ccc(/C=C/C(=O)OCC(=O)NCC2CCCO2)cc1 (stereo not given)
-9%,COc1cccc(C2NC(=O)NC(C)=C2C(=O)Nc2cc(OC)ccc2OC)c1 (stereo not given)
22%,O=[N+]([O-])c1cccc(/C=N/Nc2cc(Cl)nc(-c3ccccc3)n2)c1
-15%,Cc1ccc(NC(=O)c2nc[nH]c2C(=O)N2CCCCC2)c(C(=O)c2ccccc2)c1
-12%,COc1ccc(C2C(C(=O)N3CCOCC3)=C(C)NC3=C2C(=O)CC(C)(C)C3)c(OC)c1 (stereo not given)
-12%,CS(=O)(=O)N(Cc1ccccc1)c1ccc(C(=O)NCCSc2ccccn2)cc1
-13%,CCOc1ccc(Nc2ncnc3c2cnn3C)cc1
14%,Cc1cn2c(-c3ccc(Cl)cc3)nnc2s1
-3%,COc1ccccc1-c1cc(C(=O)N2CCN(c3ccccc3OC)CC2)no1
-23%,N#CCn1c(CCl)nc2ccccc2c1=O
-9%,Cc1nn(CC(=O)NCC(C)c2ccccc2)c(=O)c2cc3occc3n12 (stereo not given)
-5%,CS(=O)(=O)Nc1ccc(C(=O)Nc2ccc(S(=O)(=O)N3CCCC3)cc2)cc1
17%,Cc1ccc(N(CC(=O)N2CCc3ccccc32)S(=O)(=O)c2cccs2)cc1
8%,O=C(NNC(=O)C1CC=CCC1)c1ccccc1Cl (stereo not given)
8%,Cc1ccc2c(C)cc[n+](CCCS(=O)(=O)[O-])c2c1
-21%,Cc1cc(C)n2nc(C(=O)OCC(=O)Nc3cc(Cl)ccc3C)nc2n1
-9%,O=C1/C(=C\c2ccco2)NC(=S)N1c1ccccc1
-3%,CCOC(=O)N1CCN(C(=O)CN(c2cccc(Cl)c2C)S(=O)(=O)c2ccc(C)cc2)CC1
-3%,O=C1C(=Cc2ccco2)CCCC1=Cc1ccco1
13%,CC(=O)c1ccc(OCC(O)CN(C)CCOc2ccc(Br)cc2)cc1 (stereo not given)
3%,O=C(CN1CCN(Cc2ccccc2)CC1)N/N=C/c1cccs1
5%,Fc1ccc(COc2ccc(/C=N/n3cnnc3)cc2)cc1
-7%,O=C(Nc1nnc(-c2ccco2)s1)C1CC1
-2%&-14%,CCCC[C@H]1C2=C3[C@@H](CC(C(=O)OC)=C[C@@H](C(=O)OC)[C@H]3C(C)(C)C2=O)n2c(=O)n(-c3ccccc3)c(=O)n21
?,C[n+]1c(-c2ccccc2)sc([S-])c1-c1ccccc1
25%,COc1ccccc1NC(=O)CSC1=NC(=O)C(Cc2ccccc2)C(=O)N1 (stereo not given)
-21%,C=C1CC2C3CC[C@@]4(OCOC45COCO5)[C@@]3(C)C(O)CC2[C@@]2(C)CCC(=O)C=C12 (stereo not given in full)
-16%,NC(=O)N/N=C/c1ccc(N2CCOCC2)s1

New compounds follow:
VDR inhibitor,canonical_smiles
-1%,CC(=O)N1CCN(S(=O)(=O)c2cccc(C(=O)Nc3ccc(C)cn3)c2)CC1
13%,CCCN1CCN(CCCNC(=O)c2cnn(-c3ccc(C)cc3)c2-n2cccc2)CC1
?,O=S(=O)(NCCn1cccc1)c1ccc2ccccc2c1
-18%,O=c1c2ccccc2cnn1Cc1ccc(Cl)c(Cl)c1
2%,FC(F)(F)c1ccc(-c2nnc(-c3ccccn3)c(-c3ccccn3)n2)nc1
13%,CSc1nc(C)c(CCOCc2ccccc2)c(=O)[nH]1
-9%,O=c1cc(-c2ccc([N+](=O)[O-])cc2)c2cc3c(cc2[nH]1)OCCO3
12%,Cc1cc(=O)[nH]c(SCC(=O)N2CCCc3ccccc32)n1
-4%,O=C(Cc1ccccc1[N+](=O)[O-])Nc1nccs1
-5%,CCn1c(N)c(C(=O)Nc2ccccc2C(=O)OC)sc1=S
0%,CCOC(=O)Cc1csc(NC(=O)C(NC(=O)C2CCCCC2)C(C)C)n1 (stereo not given)
-25%,COc1ccc(OCC(=O)NNC(=O)c2ccccc2OCc2c(C)noc2C)cc1
-11%,Cc1cccc(NC(=O)CN2C(=O)C(c3ccc(F)cc3)=NC23CCCCCC3)c1C
-7%,COCCN(Cc1cc2cc3c(cc2nc1Cl)OCO3)C(=O)Nc1ccc(F)cc1
-8%,CCOC(=O)c1c(OCC)[nH]c2ccc(O)cc12
2%,Cc1ccc(NC(=O)C2CCN(c3nc4ccccc4[nH]3)CC2)cc1Cl
-13%,Cc1ccc(NC(=O)C(OC(=O)c2ccc(NC(N)=O)cc2)c2ccccc2)cc1Cl (stereo not given)
-7%,COc1ccc(NC(=O)CC2C(=O)N(C)C(=S)N2CCc2ccccc2)cc1 (stereo not given)
-14%,Cc1cccc(C(=O)OCN2C(=O)c3ccccc3C2=O)c1[N+](=O)[O-]
-5%,CCOC(=O)C1=CN(Cc2cccc(F)c2)S(=O)(=O)NC1c1ccc(Br)cc1F (stereo not given)
?,CCN(C(=O)COc1cc(=O)n(C)c2ccccc12)c1cccc(C(F)(F)F)c1
-17%,O=C(CSc1ccc2nnc(-c3ccc(F)cc3)n2n1)N1CCOCC1
15%,CC1CCCN(c2nc(N(C)c3ccccc3)nc(N)c2[N+](=O)[O-])C1 (stereo not given)
2%,O=c1oc2ccccc2n1CCCCCn1c(=O)oc2ccccc21
4%,O=C(Nc1ccc2c(c1)Cc1ccccc1-2)c1ccccc1F
-1%,COc1ccc(-c2c(NCCc3ccccc3)c(=O)c2=O)cc1
9%,Cc1cc(NC(=O)C2CCCN(S(=O)(=O)c3cn(C)cn3)C2)ccc1Br (stereo not given)
-3%,CC(C)C(NC(=O)CSc1ccc(Cl)cc1)C(C)C
16%,Cc1ccc(NC(=O)CCc2ccccc2)cc1S(=O)(=O)N1CCOCC1
-19%,CCOc1ccc(NC(=O)NCCN2CCN(c3cc(Cl)ccc3C)CC2)cc1
-23%,COc1ccc(OC)c(-c2nc(C(N)=O)c3[nH]c(=O)n(-c4ccc(F)cc4)c3n2)c1
-3%,O=S(=O)(Nc1ccc(Oc2ncccn2)c(Cl)c1)c1ccc(F)cc1
-10%,O=C(N/N=C/c1cccnc1)c1ccccc1OCc1cccc(Br)c1
-14%,Clc1ccc(CCNC(c2cccc(Cl)c2)c2nnc(-c3ccccc3)o2)cc1 (stereo not given)
-5%,CCCN(CCC)CC(O)Cn1cc(/C=C/C(=O)c2ccc(OCC)cc2)c2ccccc21 (stereo not given)
4%,CC(C)Oc1ccccc1/C=N/NC(=O)c1ccc(F)cc1
13%,O=C(NCCc1ccc(Cl)cc1)c1cc(-c2ccccc2)n[nH]1
-21%,Clc1nc(Cl)c2ncn(-c3ccccc3)c2n1
-4%,COc1ccc(CN(CC(=O)NCCc2ccccc2)C(=O)CCC(=O)Nc2ccccn2)cc1
2%,Cc1cc(C)c(Cn2c3ccccc3c3cnn(CC(=O)N4CCCCCC4)c(=O)c32)c(C)c1
9%,O=C(CSc1nc2c([nH]c3ccccc32)c(=O)n1-c1ccccc1)c1ccc(Cl)cc1
-26%,CSc1ccccc1NC(=O)C1=COCCO1
-10%,CSCCC(NS(=O)(=O)c1ccc(C)cc1)C(=O)N1CCN(C(c2ccccc2)c2ccccc2)CC1 (stereo not given)
-5%,CCn1c(SCC(=O)Nc2ccccc2N2CCOCC2)nnc1-c1ccccc1
3%,C=CCN1C(=O)C(CC(=O)O)SC1=Nc1c(C)n(C)n(-c2ccccc2)c1=O (stereo not given)
2%,COCCNc1ccc(-c2nc(-c3ccccn3)no2)cc1[N+](=O)[O-]
-14%,CCN(CC)CCCNC(=O)c1ccc2c(c1)N(Cc1c(F)cccc1Cl)C(=O)c1ccccc1S2
-11%,CCOC(=O)C1CCCN(C(=O)Cn2cnc3sc(C)c(S(=O)(=O)N4CCOCC4)c3c2=O)C1 (stereo not given)
8%,C/C(=N\NC(=S)NC1CCCCC1)c1ccc(Cl)c(Cl)c1
-7%,Cc1c(NS(=O)(=O)c2ccc3c(c2)Cc2ccccc2-3)c(=O)n(-c2ccccc2)n1C
